Screens (PubChem)
Vif A3G: inhibitors of Vif binding to APOBEC3G peptide, primary screen, biochemical, TR-FRET, GST-Vif 1-94, biotin-A3G peptide, dose response retest (AID 1117319); TR-FRET GST-Vif / biotin-A3G peptide binding; higher % means a stronger effect; test concentration not given here; strong numbers were not always called active; inhibition, %, or IC50 in µM where a hit was titrated; hit rate 0.57% among 260,000;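 active means above the screen mean plus three standard deviations and confirmed in dose response; inconclusive means results disagree or hit not tested in dose response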;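 further: Vif residues 1-94 fused to GST binding biotinylated APOBEC3G peptide 110-148; 0% = full assay without inhibitor and 100% = GST in place of GST-Vif; retest series ran down from 100 µM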
Beta2AR agonist: human beta-2 adrenergic receptor agonism by FAP. Am2.2-beta2AR cells, FAP receptor internalization, flow cytometry; reference of the scale not given here. AID 504454. response, % (no concentration beside the values). hit rate 0.43% among 340,000;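 active means response above a set limit, near 3 SD of response in nonfluorescent compounds, cut at about 42% in these data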;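 further: stock transfer was 100 nL into about 11 µL; a reference agonist was the positive control; negative values mostly stem from fluorescent compounds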
A1 inh: inhibitors of the anti-apoptotic protein A1, read as caspase activation; hit rate 0.066% among 330,000; MEF A1-2A-BIM cells, Caspase-Glo 3/7 luminescence, 3 h; percent of clofoctol response, vehicle zero; caspase activation, % (test concentration not listed);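 active means over half of replicate activation scores above 10%, or exactly half above 10 with the replicate mean above 10; inconclusive means replicate mean below 10 yet half the replicates above 10; inactive means over half of replicates below 10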;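 further: wells of about 30 µL received 50 nL stock; many hits fall short of the cut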
UCH37 DUB inh: human UCH37 deubiquitinating enzyme inhibition; inhibition, % (concentration not given with the values); hit rate 0.33% among 330,000; purified proteasome/UCH37, Ub-AMC cleavage fluorescence; AID 588478;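 active means mean of two replicates above 20%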;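 further: 0% = compound-free wells with enzyme and 100% = wells lacking proteasome; stock transfer was 100 nL into about 20 µL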
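System: Proteasome-associated human UCH37 deubiquitinase; Input: 0.15 nM proteasome in added enzyme buffer; Also added: Ub-AMC substrate from 1 µM stock; Incubation: 30 min compound-proteasome preincubation then 25 min substrate reaction, room temperature; Detection: fluorescence, ex 355 nm, em 460 nm; Read-out: % inhibition of Ub-AMC cleavage fluorescence; Benchmarks: no-proteasome and no-compound wells.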
HNF4A DNA FP: change in binding of human HNF4 alpha to DNA. AID 1224865. activity change, % at 10 µM. P41235. HNF4a-FITC DNA binding, fluorescence polarization, 1 h. hit rate 0.3% among 360,000; in the data active means activity change above about 30%, passing the limit was not always enough;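 further: controls were the assay level and a saturating level of protein; the project sought stronger binding though the title names inhibitors; some compounds called inactive have numbers as strong as hits; positive values seem to mean higher polarization but the record does not say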
LANA-H2B inh: blocks KSHV LANA binding to histone H2A/H2B. Q9QR71. cell-free LANA-H2A/H2B peptide, fluorescence polarization. inhibition, % (concentration not given with the values). hit rate 0.6% among 320,000. AID 2629; in the data active means inhibition mostly above about 10%, no sharp cut-off; inactive means mostly below about 6.7%;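 further: stock transfer was 7.5 nL into about 10 µL; 0% = median of vehicle wells and 100% = median of positive control wells; one replicate is shown; the record names a cut of 25% in any replicate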
Target sequence (Q9QR71 whole entry, looked up): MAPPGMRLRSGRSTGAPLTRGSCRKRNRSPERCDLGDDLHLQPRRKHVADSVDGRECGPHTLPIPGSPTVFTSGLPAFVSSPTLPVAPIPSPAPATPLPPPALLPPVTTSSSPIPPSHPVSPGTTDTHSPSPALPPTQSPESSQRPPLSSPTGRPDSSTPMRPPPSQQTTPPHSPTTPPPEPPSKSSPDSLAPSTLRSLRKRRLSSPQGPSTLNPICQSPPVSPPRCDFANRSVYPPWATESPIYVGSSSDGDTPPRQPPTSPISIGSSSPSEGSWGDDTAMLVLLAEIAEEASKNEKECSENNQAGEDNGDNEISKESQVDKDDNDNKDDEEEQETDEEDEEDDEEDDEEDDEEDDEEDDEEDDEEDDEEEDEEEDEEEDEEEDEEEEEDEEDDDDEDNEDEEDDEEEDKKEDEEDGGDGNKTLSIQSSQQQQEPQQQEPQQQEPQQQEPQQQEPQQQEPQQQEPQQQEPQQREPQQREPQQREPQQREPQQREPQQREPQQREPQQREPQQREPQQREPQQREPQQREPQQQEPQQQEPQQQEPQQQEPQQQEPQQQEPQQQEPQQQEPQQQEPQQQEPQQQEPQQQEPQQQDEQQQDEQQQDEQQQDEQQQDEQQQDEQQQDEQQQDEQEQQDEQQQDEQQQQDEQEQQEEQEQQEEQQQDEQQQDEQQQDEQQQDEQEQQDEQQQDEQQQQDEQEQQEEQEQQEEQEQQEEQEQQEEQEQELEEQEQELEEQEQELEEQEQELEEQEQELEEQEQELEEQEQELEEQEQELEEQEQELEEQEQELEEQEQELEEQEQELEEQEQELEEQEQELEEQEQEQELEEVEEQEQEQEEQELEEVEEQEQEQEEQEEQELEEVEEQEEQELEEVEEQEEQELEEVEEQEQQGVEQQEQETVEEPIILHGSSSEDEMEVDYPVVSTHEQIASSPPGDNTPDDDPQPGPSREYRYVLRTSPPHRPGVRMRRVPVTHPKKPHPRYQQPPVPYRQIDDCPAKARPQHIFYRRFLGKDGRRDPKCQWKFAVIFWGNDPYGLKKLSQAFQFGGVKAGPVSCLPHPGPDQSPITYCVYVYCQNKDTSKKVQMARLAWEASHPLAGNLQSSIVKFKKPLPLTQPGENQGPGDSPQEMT
E coli growth: blocks Escherichia coli growth | OD600, 23 h; active compounds read low | OD600 absorbance (test concentration not listed) | hit rate 0.21% among 330,000;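 active means OD600 absorbance below the run mean of sample wells minus 3.6 SD, in any replicate, cut at about 0.56 in these data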;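 further: stock transfer was 300 nL into about 60 µL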
Numbers without * were called inactive; ? = inconclusive; / = not tested or not shown.

SMILES	Vif A3G	Beta2AR agonist	A1 inh	UCH37 DUB inh	HNF4A DNA FP	LANA-H2B inh	E coli growth
COC(=O)[C@H](CC(C)C)NC(=O)NC1CCCCC1C (stereo partly specified)	-4%	-1	-0.7	2.1	-1.8	2.5	0.66
O=C(CN1CCC(n2nnc3cc(F)ccc32)CC1)Nc1ccccc1N1CCOCC1	-2%	-8	0.1	-1.1	1.9	-12	0.72
Clc1ccc(OCCn2cnc3ccccc32)cc1	3%	0	1.1	0.1	1.1	-0.2	0.67
COc1ccc(CNC(=S)Nc2ccc(F)c(Cl)c2)cc1OC	7%	0	-0.3	0.6	1.2	-6.1	0.7
Cc1cc(C)c2cc3c(N)c(C(=O)N4CCOCC4)sc3nc2c1	-6%	15	1.3	-68	4.0	-1.5	0.64
N/C(=N\OC(=O)c1cccc(Br)c1)c1ccncc1	-7%	-10	-2.2	0.4	-2.2	2.2	0.69
COCCCNC(=O)C(=O)NCC1CCCN1S(=O)(=O)c1cccs1 (stereo unspecified)	9%	5	-0.6	4.3	-1.2	1.7	0.66
Cc1ccc(S(=O)(=O)Nc2cc(-c3ccc(Cl)cc3)nn2C)cc1	1%	5	2.3	-0.6	-0.6	1.4	0.64
O=C(COc1ccccc1)NC(=S)Nc1ccc2c3c(cccc13)CC2	4%	5	1.1	4.7	1.9	1.5	0.8
CNC(=O)c1ccc(CNC(=O)OCc2ccccc2)cc1	-5%	0	0.9	1.2	-2.9	0.0	0.69
O=C1CCCN1CCCNC(=S)Nc1ccc(Nc2ccccc2)cc1	-3%	-7	-0.7	7.0	-3.6	0.2	0.7
Cc1cccc(NS(=O)(=O)c2ccc(-c3cnc(C4CC4)o3)cc2)c1C	/	11	/	2.3	3.7	/	0.64
CN(c1cccc(Cl)c1)S(=O)(=O)c1cccc(C(=O)NCc2ccncc2)c1	-1%	-4	-0.4	-1.5	0.0	53*	0.65
CCOc1ccc(NC(=S)Nc2ccc3nsnc3c2)cc1	0%	10	0.6	14	6.1	1.2	0.61
C/C(N)=C(/C#N)C(=O)CSc1nnc(-c2ccccc2)n1C	13%	-4	1.1	0.9	0.3	-1.6	0.69
O=C(Oc1cccnc1)c1ccc([N+](=O)[O-])cc1	?	4	0.2	7.6	-3.1	0.8	0.67
Cc1c(NC(=S)N/N=C/C=C/c2ccc([N+](=O)[O-])cc2)c(=O)n(-c2ccccc2)n1C	/	11	0.0	/	0.3	0.7	/
COc1cc(-c2noc(C)c2C(=O)NCCCN2CCOCC2)cc(OC)c1OC	/	-4	0.2	0.4	-1.1	-6.0	0.72
COc1ccc(-c2cc(-c3c(O)c(OC)c4occc4c3OC)[nH]n2)cc1OC	21%	9	-0.1	1.0	3.2	-5.2	0.7
CCCCOCCCNC(=O)N[C@H](C(=O)OC)C(C)CC (stereo partly specified)	4%	2	0.9	1.2	-0.5	2.9	0.62
CS(=O)(=O)c1ccc(Cl)c(NC(=O)c2ccc3ccccc3c2)c1	/	-9	1.8	2.5	1.0	0.2	/
CC(C)Sc1nc2sc3c(c2c2nnc(SCC(=O)NCc4ccco4)n12)CCCC3	-19%	13	0.1	-0.5	-9.3	-3.6	0.78
O=C(Oc1ccc2ccccc2c1)c1ccco1	-7%	5	-0.4	4.8	0.0	-2.4	0.66
COc1ccccc1NC(=O)CCCCCN1C(=O)c2cccc([N+](=O)[O-])c2C1=O	/	0	-2.4	2.0	3.7	3.9	0.69
CC(c1ccon1)N(C)C(=O)CCc1nnc(C2(c3ccc(Cl)cc3)CCC2)o1 (stereo unspecified)	/	8	0.5	0.0	1.4	-2.8	0.65
Cc1ccc(NC(=S)N2CCOCC2)cc1	/	-6	0.3	-0.4	-2.0	-1.4	0.72
O=C1OC(c2ccccc2)/C(=C(/O)c2ccc(Cl)cc2)C1=O (stereo unspecified)	-2%	0	-0.2	8.2	1.0	3.9	0.7
COCO/C=C(\NC(C)=O)c1ccccc1	/	0	1.1	0.5	2.6	3.9	/
CC1CC(C)CN(C(=O)CN2C(=O)NC3(CCCCCCC3)C2=O)C1 (stereo unspecified)	2%	2	0.1	0.6	-2.9	2.6	0.68
COc1ccc(Cl)cc1C(=O)NCc1cn(C)nc1C	-6%	-1	0.9	-1.8	-1.9	4.8	0.68
CCCN1C(=O)/C(=C/c2ccco2)SC1=Nc1ccc(OC)cc1	21%	-9	-0.8	1.1	1.0	-5.4	/
CC(=O)N(C(C)=O)n1c(C)nc2sc3c(c2c1=O)CCCC3	/	-6	0.6	2.3	-0.3	1.1	0.69
Cc1ccc(S(=O)(=O)c2nc(S(C)(=O)=O)sc2N2CCC(C)CC2)cc1	/	-3	-1.2	6.1	-4.2	4.3	0.73
O=C1c2cccc(OCc3ccc(F)cc3)c2CCN1Cc1ccccc1	/	-8	-0.1	-0.8	-1.5	7.0	0.7
CC(C)Cc1nc2n[nH]c(N)c2c2c1CCC2	-7%	-4	1.5	1.1	-2.8	1.0	0.69
O=C(COC(=O)c1cccc(O)c1)NCc1ccc2c(c1)OCO2	-10%	-1	-0.2	1.4	-0.6	-2.2	0.73
COc1cccc(NC(=O)CN2C(=O)NC(CCc3ccccc3)C2=O)c1 (stereo unspecified)	-7%	8	0.1	1.5	-0.2	-3.6	0.71
COCCCn1c(=O)c2sccc2n2c(CCCC(=O)NCc3ccccc3)nnc12	2%	-9	-2.0	4.9	-3.0	-3.9	0.68
O=C(O)c1ccc(N/N=C/c2ccc3nccnc3c2)cc1	5%	6	-7.7	/	-0.3	5.1	/
CCOc1ccc(Oc2nc(C)cc(OC)n2)nn1	0%	0	0.3	-1.3	0.3	3.1	0.73
O=c1cc(-c2ccc(Cl)cc2)[nH][nH]1	12%	6	0.5	3.4	0.9	2.4	0.72
CN1CCN(c2ccc(C(=O)NC3CCCCC3)cc2[N+](=O)[O-])CC1	2%	-2	0.8	1.1	-0.6	4.5	0.68
O=C(NC1=NCCS1)c1ccc(F)c(S(=O)(=O)N2CCOCC2)c1	/	10	-0.9	3.6	3.7	-12	0.69
COc1cccc2cc3c(=O)n(-c4ccccc4)nc-3oc12	5%	-5	-0.1	0.0	4.4	-1.0	0.73
CC1CCCCC1NCC(=O)NCc1ccc(F)cc1 (stereo unspecified)	-1%	6	0.9	2.0	-2.1	-1.0	0.7
CCN(c1ccccc1)S(=O)(=O)c1ccc(Cl)c(NC(=O)CSc2nncn2C)c1	/	3	-0.5	0.1	-0.7	0.3	0.63
COc1ccc(C(=O)N/N=C/c2ccccn2)cc1OC	?	-10	-0.2	/	-3.1	0.2	/
O=C(CCN1C(=O)/C(=C\c2cccs2)SC1=S)Nc1nccs1	-5%	13	-0.4	1.1	38*	-14	0.64
O=C(COC(=O)c1cc2ccccc2cc1O)Nc1cccnc1Cl	-10%	0	-1.6	-0.1	0.0	-3.3	0.7
COc1ccc(C(=O)OCC(=O)Nc2ccc([N+](=O)[O-])cc2OC)c(O)c1	-2%	13	-0.4	2.7	2.3	2.0	0.7

Later entries:
SMILES	Vif A3G	Beta2AR agonist	A1 inh	UCH37 DUB inh	HNF4A DNA FP	LANA-H2B inh	E coli growth
O=C(CN1C(=O)C2C3CC(C(Br)C3Br)C2C1=O)Nc1ccc(C(=O)O)cc1 (stereo unspecified)	3%	9	1.0	2.8	-0.5	0.1	0.67
CC(O)C(NS(=O)(=O)c1ccc(Cl)cc1)C(=O)OCc1cc([N+](=O)[O-])cc2c1OCOC2 (stereo unspecified)	-2%	-16	0.9	/	2.6	4.8	/
Cc1cccc(C)c1NC(=O)CNC(=O)C(C)N(C)CC(=O)Nc1ccc(F)cc1 (stereo unspecified)	1%	-2	/	2.4	-1.3	/	0.68
COc1ccc(NC(=O)CN2CCCN(S(=O)(=O)c3ccc(F)cc3)CC2)c(OC)c1	-7%	-2	0.0	2.4	0.6	3.5	0.62
Cc1ccc(N(CC(O)CN2CCCCC2)S(=O)(=O)c2ccccc2)cc1 (stereo unspecified)	/	-2	0.4	0.5	-0.6	7.0	0.67
COc1ccc(-n2ncc(C(=O)NC3CC3)c2C2CCN(C(=O)OC(C)(C)C)CC2)cc1	-1%	-3	0.6	2.2	-0.2	-2.0	0.65
Nc1cc(=O)[nH]c(=S)n1-c1ccccc1	-7%	15	0.1	0.6	-1.4	1.8	0.68
NC(CC(=O)NC(c1ccccc1)(c1ccccc1)c1ccccc1)C(=O)O (stereo unspecified)	/	-1	1.1	-2.2	-3.2	-1.1	0.71
CC(C)CCn1nnnc1C(C(C)C)N1CCC(C(N)=O)CC1 (stereo unspecified)	-1%	0	0.0	5.3	-0.7	2.9	0.68
CCN1C(=O)/C(=C\N(C)C)S/C1=N\S(=O)(=O)c1ccc(C)cc1	?	-6	0.2	/	-6.9	0.5	/
COc1cc(C(=O)NCCC(C)C)c([N+](=O)[O-])cc1OC	6%	-2	-0.1	7.9	-3.7	-0.9	0.71
CCSc1nncn1/N=C/c1ccc(OC)c(OC)c1	-4%	11	1.2	/	1.8	-9.6	/
NS(=O)(=O)c1ccc(NC(=S)NC(=O)c2cccc(Br)c2)cc1	5%	-10	/	0.5	3.5	/	0.66
Cc1oc(CSCC2CCCO2)cc1C(=O)O (stereo unspecified)	2%	1	1.4	5.1	-0.3	0.1	0.79
COc1ccc(C2/C=C\CN(C(=O)NC(C)C)CC(=O)N2Cc2ccc(F)cc2)cc1 (stereo unspecified)	/	5	-0.3	3.8	0.5	-0.8	/
Cc1ccc(C(=O)NCCNC(=O)CN2CCOCC2)cc1	25%	-7	0.0	-1.8	2.8	2.6	0.78
CCC(COC)NC(=O)c1ccc(OC)c(OC2CCN(C(C)=O)CC2)c1 (stereo unspecified)	/	-1	-0.6	5.5	4.9	-2.2	0.69
Cc1ccc(N2CC(=O)N(NC(=O)Nc3ccc(Cl)c(Cl)c3)CC2=O)cc1	-8%	-2	-0.6	0.3	7.2	7.3	0.67
Cc1sc(NC(=O)CSc2nnc(CCNC(=O)c3cccs3)n2C)nc1-c1ccccc1	-7%	-6	-0.1	7.1	0.0	-2.2	0.74
COc1cc(C(=O)Nn2c(O)c(C3=c4ccccc4=NC3=O)sc2=S)ccc1O	2%	17	0.1	9.5	-1.0	-1.1	0.66
CCCN1CCN(C(=O)c2c(Cl)cnn2C)CC1	-5%	6	0.4	3.0	-4.2	2.1	0.67
Cc1cccc(-n2c(SCCC(=O)O)nnc2-c2cccs2)c1C	25%	6	1.2	2.4	0.8	1.5	0.75
O=C(Nc1ccc2[nH]c(=S)sc2c1)Nc1ccccc1F	23%	0	-8.4	11	-0.1	-1.8	0.63
C=CCNC(=O)c1ccccc1NC(=O)C1CCN(S(=O)(=O)c2ccc(SC)cc2)CC1	/	-1	-0.4	-1.2	4.4	3.3	0.66
O=C(N[C@@H]1C/C=C\C[C@H](CC(=O)N(CCO)Cc2ccccc2)C(=O)N[C@@H](Cc2ccccc2)COC1=O)OCC1c2ccccc2-c2ccccc21	/	12	0.3	4.0	-0.4	-0.4	/

A section of the results above, as a working copy:
SMILES	Vif A3G	Beta2AR agonist	A1 inh	UCH37 DUB inh	HNF4A DNA FP	LANA-H2B inh	E coli growth
COC(=O)[C@H](CC(C)C)NC(=O)NC1CCCCC1C (stereo partly specified)	-4%	-1	-0.7	2.1	-1.8	2.5	0.66
O=C(CN1CCC(n2nnc3cc(F)ccc32)CC1)Nc1ccccc1N1CCOCC1	-2%	-8	0.1	-1.1	1.9	-12	0.72
Clc1ccc(OCCn2cnc3ccccc32)cc1	3%	0	1.1	0.1	1.1	-0.2	0.67
COc1ccc(CNC(=S)Nc2ccc(F)c(Cl)c2)cc1OC	7%	0	-0.3	0.6	1.2	-6.1	0.7
